Screening results from PubChem BioAssay.
MARV entry inh = qHTS for inhibitors of binding or entry into cells for Marburg Virus. AID 540276, 2011. Marburg virus pseudotyped entry inhibition, cell reporter; control for the full effect not named in the record; about a third of the inactives were read at about 46 µM. actives 1.8% (n = 300,000). Potency, µM (titrated, usually from 37.8 µM), inactives show top-dose activity change, negative = inhibition, actives largely listed as inhibitors; active = well fitted inhibition curve with a large enough effect; inconclusive = small, poorly fitted or top-dose-only effect, or effect the other way; inactive = flat fitted curve, though single readings scatter; tested in HEK293 cells; about a fifth of its hits are not listed in these tables; also: % is scaled to controls: 0 for no effect and ±100 for the full control effect; luciferase read-out
NS1 function inh = qHTS Assay for Inhibitors of Influenza NS1 Protein Function. S. cerevisiae slowed by influenza A NS1, growth recovery by OD600. Potency, µM (top dose mostly 46.1 µM), inactives show top-dose activity, positive = more growth. actives 0.4% (n = 270,000); active means well fitted rising curve with a large enough effect; inconclusive means small, poorly fitted or top-dose-only effect; inactive means no such curve, though single readings can be large or run the other way; also: nearly all actives have a fitted effect of over 50% in size
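A cell-based growth assay was used: compounds that relieve NS1-induced slow growth of budding yeast raise OD600. Assay medium was yeast nitrogen base with ammonium sulphate and -URA supplement, pH 6.0, with 2% galactose.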
Cruzain inh Det = qHTS Assay for Promiscuous and Specific Inhibitors of Cruzain (with detergent) | Cruzipain (Trypanosoma cruzi), P25779 | purified cruzain, Z-FR-AMC fluorescence, 0.01% Triton | Potency, µM, without a hit: max response, negative = inhibition, actives largely listed as inhibitors | actives 0.43% (n = 200,000) | AID 1478, 2009;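 also: plate controls were neutral wells for no effect and buffer without enzyme for full effect; nearly all actives have a fitted effect of over 40% in size; top concentration of the series not given in the record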
Target sequence (P25779 123-467 limits assumed): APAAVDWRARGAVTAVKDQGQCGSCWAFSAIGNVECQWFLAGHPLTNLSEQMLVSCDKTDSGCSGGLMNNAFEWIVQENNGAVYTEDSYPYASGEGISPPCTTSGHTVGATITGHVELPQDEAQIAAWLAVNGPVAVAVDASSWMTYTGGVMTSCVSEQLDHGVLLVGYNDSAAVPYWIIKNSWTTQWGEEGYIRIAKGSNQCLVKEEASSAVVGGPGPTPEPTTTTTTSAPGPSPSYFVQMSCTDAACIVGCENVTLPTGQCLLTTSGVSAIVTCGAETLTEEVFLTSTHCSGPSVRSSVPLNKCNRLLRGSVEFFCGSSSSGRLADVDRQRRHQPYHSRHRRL
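Detergent-containing arm of a paired screen for aggregation-based inhibition: 0.01% Triton X-100 present. Cruzain at 1.5 nM cleaved 2 uM Z-FR-AMC at pH 5.5 with 5 mM DTT; AMC fluorescence gain over 60 s measured activity.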
Cruzain noTriton = qHTS Assay for Promiscuous and Specific Inhibitors of Cruzain (without detergent) | Cruzipain (Trypanosoma cruzi), P25779 | purified cruzain, Z-FR-AMC fluorescence, no detergent | Potency, µM, without a hit: max response, negative = inhibition, usual class: inhibitors | actives 2.3% (n = 200,000) | AID 1476, 2009;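 also: plate controls were enzyme without inhibitor for no effect and buffer without enzyme for full effect; nearly all actives have a fitted effect of over 40% in size; top concentration of the series not given in the record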
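Purified cruzain at 1.5 nM, pre-incubated 15 min with compound at room temperature in 100 mM sodium acetate pH 5.5, 5 mM DTT, 0.00005% Triton X-100. Reaction started with 2 uM Z-FR-AMC; AMC fluorescence increase over 60 s gives rate.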
RE007 growth inh = qHTS Assay for Inhibitors of the HIV-1 protein Vpr; Potency, µM (titrated, usually from 92.2 µM), for the others: at the highest dose activity change, negative = less growth; AID 651644, 2012; S. pombe RE007 Vpr strain, BacTiter-Glo ATP luminescence, 24 h; control for the full effect not named in the record; actives 0.21% (n = 360,000); active = well fitted falling curve with a large enough effect; inconclusive = small, poorly fitted or top-dose-only effect; inactive = no such curve, though single readings can be large or run the other way;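 also: % is scaled to controls: 0 for no effect and ±100 for the full control effect; nearly all actives have a fitted effect of over 50% in size; the assay follows cell death caused by Vpr and the record does not say whether a fall means rescue or toxicity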
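Fission yeast strain RE007, carrying one chromosomally integrated HIV-1 vpr copy, was seeded at OD 0.01 in PMG+AL medium with 23 nL pinned compound. After 24 h at 30 °C and 99% humidity, viability was read by BacTiter-Glo luminescence.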
Lassa entry inh = qHTS for Inhibitors of binding or entry into cells for Lassa Virus. AID 540256, 2011. actives 1.2% (n = 300,000). Potency, µM (series often up to 37.9 µM), for the others: at the highest dose activity change, negative = inhibition, hits mostly inhibitors. Lassa virus pseudotype entry inhibition, cell reporter; control for the full effect not named in the record; active means well fitted inhibition curve with a large enough effect; inconclusive means small, poorly fitted or top-dose-only effect, or effect the other way; inactive means flat fitted curve, though single readings scatter; tested in HEK293 cells; also: % is scaled to controls: 0 for no effect and ±100 for the full control effect; nearly all actives have a fitted effect of over 50% in size; luciferase read-out
StopGo reporter = High Throughput Screening for Foot and Mouth Disease Virus Antivirals | human cells with a luciferase reporter of 2A StopGo recoding; control for the full effect not named in the record | Potency, µM (highest dose often 57.9 µM), without a hit: at the highest dose signal change, negative = less light | actives 1.2% (n = 410,000) | AID 1159524, 2015; active = well fitted falling curve with a large enough effect; inconclusive = small, poorly fitted or top-dose-only effect; inactive = no such curve, though single readings can be large or run the other way; tested in HEK293T cells; also: % is scaled to controls: 0 for no effect and ±100 for the full control effect; nearly all actives have a fitted effect of over 45% in size; luciferase light after 4 h
SARS PLP yeast = qHTS of Yeast-based Assay for SARS-CoV PLP; Potency, µM (titrated, usually from 32.9 µM), without a hit: top-dose activity, positive = growth rescue; S. cerevisiae expressing SARS-CoV PLpro, growth rescue; control for the full effect not named in the record; actives 0.19% (n = 330,000); active means well fitted rising curve with a large enough effect; inconclusive means small, poorly fitted or top-dose-only effect; inactive means no such curve, though single readings can be large or run the other way; also: 0% is about no effect; nearly all actives have a fitted effect of over 55% in size; growth read by luminescence after 48 h
Numbers without * were called inactive; ? = inconclusive; · = not tested or not shown; & = joins results of further samples; [ ] = another dose, or the depositor's remark. Unless noted, calls follow the shape of the dose curve; as a rule, active = well fitted curve in the direction sought with a large enough effect; inconclusive = small, poorly fitted or top-dose-only effect, or another doubt; inactive = no such curve, though single readings can be large; an effect the other way counts as inactive or inconclusive. Potency is read from the fitted curve at half-maximal effect.

SMILES	MARV entry inh	NS1 function inh	Cruzain inh Det	Cruzain noTriton	RE007 growth inh	Lassa entry inh	StopGo reporter	SARS PLP yeast
Cc1cccc(NC(=O)c2cnn(-c3ccccc3)c2-n2cccc2)c1C	-20.9%[46.1 µM]	·	-0.5%	-1.5%	·	-26.7%[46.1 µM]	?	·
CCOC(=O)c1cc2occc2n1CC(=O)NC1CCC(C)CC1 (stereo unspecified)	-0.5%	-13.3%	5.7%	-12.9%	11.1%	11.7%	0.9%	-5.3%
OCC[C@@H]1C[C@@H](O)[C@H](O)[C@]2(CCc3ccccc3CO2)O1	·	-0.1%	·	·	8.4%	·	-7.3%	-3.2%
CCN(CC(=O)NCc1cccs1)C(=O)c1ccc(OC)c(OC)c1	-4.0%	·	·	·	-16.0%	-0.8%[46.1 µM]	-4.0%	-2.0%
Cc1ccccc1-c1nc(CS(=O)(=O)CC(=O)Nc2c(C)cccc2C)c(C)o1	-2.8%[46.1 µM]	·	2.0%	-6.1%	·	-13.6%[46.1 µM]	-29.8%	·
S=C(NCc1ccco1)NCc1ccccc1Cl	·	20.5%	·	·	15.8%	·	39.0%[activator]	-0.5%
Cc1nc2sc(C(c3ccco3)N3CCN(c4ccccc4F)CC3)c(O)n2n1 (stereo unspecified)	1.0%&-0.1%	-6.8%	-2.9%	?	12.2%	6.3%	·	1.4%
COc1ccc(C(=O)NCC(c2cccnc2)N2CCc3ccccc32)cc1 (stereo unspecified)	·	·	-1.8%	5.3%	·	-1.2%[46.1 µM]	?	·
C=C(C)Cn1c(C2CC(=O)N(c3ccccc3F)C2)nc2ccccc21 (stereo unspecified)	-29.1%	-85.4%	-1.1%	-0.1%	17.6%	-21.8%	-9.0%	9.9%
CCN1C(=O)c2ccccc2S(=O)c2ccc(C(=O)NCc3ccccn3)cc21 (stereo unspecified)	-19.4%	-10.7%	-0.9%	4.2%	19.1%	-2.7%	-19.9%	-5.1%
Cn1c(C(F)(F)F)nc2c(=O)oc3ccccc3c21	16.5%	-1.1%	-0.5%	-0.6%	3.0%	6.8%	-10.5%	2.8%
CC(C)(C)C1C=C(Sc2ccccc2)C(=O)O1 (stereo unspecified)	?	2.9%	-2.7%	3.6%	14.5%	?	-1.3%	-6.1%
CCC(O)(CC)C(=O)N=Nc1c(O)[nH]c2ccccc12	17.8%	·	·	·	5.9%	?	8.3%	-0.3%
COc1ccc(C)cc1N(C)C(=O)c1c2c(nc3ccccc13)C(=O)N(C1CCCCC1)C2	·	·	-4.4%	-15.5%	·	3.3%[46.1 µM]	-25.1%	·
O=C(NNC(=O)c1sccc1-n1cccc1)c1ccccc1	?	-5.1%	1.2%	-3.2%	-0.4%	5.1%	-24.2%	4.0%
CCc1ccc(NC(=O)c2cc(CC(C)C)on2)cc1	·	?	1.7%	5.4%	-5.3%	·	38.1%[activator]	4.4%
CC(C)NC(=O)c1ccccc1NC(=O)CCc1ccccc1	3.9%	-3.0%	-0.3%	-3.2%	-13.1%	0.2%	-12.6%	5.6%
COc1cc(NC(=O)C2CCC(CNc3c(N4CCC(C)CC4)c(=O)c3=O)CC2)cc(OC)c1 (stereo unspecified)	?	17.4%	0.3%	-3.3%	-4.6%&-2.2%	16.8%	-3.8%&-13.6%	-1.7%
O=C1c2ccccc2C(O)N1Cc1ccc2c(c1)OCO2 (stereo unspecified)	·	-7.2%	5.0%	-17.8%	8.1%	·	-10.4%	-7.9%
CSc1nc(C)cc(C)c1S(=O)(=O)c1ccccc1C	?	-22.0%	6.2%	-12.0%	0.3%	-5.2%	-30.1%	-1.0%
COC(=O)c1nn(-c2cccc(C)c2)c2nnc(Cc3ccc(C)cc3)c(=O)n12	15.9%	3.7%	-3.8%	-12.0%	-12.3%	6.3%	-15.2%	-19.7%
CC(C)c1ccc(NC(=O)Cn2cc(S(=O)(=O)N3CCN(c4ccccc4F)CC3)c3ccccc3c2=O)cc1	-13.9%[46.1 µM]	·	-2.1%	7.94µM*	·	-3.3%[46.1 µM]	-19.3%	·
COc1cccc(NC(=O)NC2CCN(CC(=O)Nc3ccccc3[N+](=O)[O-])CC2)c1	-26.1%[46.1 µM]	-18.7%	·	·	13.4%	?	-29.3%	0.6%
COc1ccc(-c2noc(CCC(=O)NCCN3CCN(c4ccccc4F)CC3)n2)cc1	?	-6.1%	7.6%	-4.2%	7.7%	?	?	-0.4%
Cn1c(COc2ccc3ccccc3c2)nnc1SCC(=O)OC1CCCCC1	0.3%	-31.8%	-9.6%	14.6%	0.1%	8.5%	?	-6.3%

Continued.
SMILES	MARV entry inh	NS1 function inh	Cruzain inh Det	Cruzain noTriton	RE007 growth inh	Lassa entry inh	StopGo reporter	SARS PLP yeast
CC(C)(C)C1CCC2(CC1)NC(CO)(CO)CO2 (stereo unspecified)	4.4%	4.9%	7.7%	-3.6%	-5.4%	2.6%	-13.6%	-2.4%
O=c1onc(-c2c(F)cccc2F)n1-c1ccccc1Cl	1.8%[46.1 µM]	-0.4%	·	·	-3.8%	4.5%[46.1 µM]	2.1%	0.3%
CC(OC(=O)CN1C(=O)C2CC=CCC2C1=O)C(=O)Nc1ccc(F)cc1Cl (stereo unspecified)	18.6%	-3.1%	·	·	-6.1%	4.7%	-26.1%	0.9%
O=C(Nc1ccc(Br)cc1)C1CCN(c2ncccn2)CC1	4.0%[46.1 µM]	·	-0.9%	-14.5%	·	19.6%[46.1 µM]	-11.7%	·
Cc1ccc(NC(=O)CN(c2ccccc2)S(=O)(=O)N(C)C)cc1C	3.3%	0.2%	-4.3%	-7.7%	-8.3%	-18.0%	-3.5%	14.2%
COc1ccc(Cl)cc1NC(=O)c1cc(S(=O)(=O)N2CCc3ccccc32)cn1C	·	·	-1.5%	0.7%	·	-2.3%[46.1 µM]	-14.7%	·
CCCCOc1ccc(C(=O)C(CN2CCOCC2)c2ccccc2)cc1 (stereo unspecified)	?	-24.0%	-2.5%	5.7%	-5.1%	?	17.8µM*	-35.1%
O=C(CN(c1ccccc1)S(=O)(=O)c1ccc(F)cc1)N1CCCCCC1	9.3%	0.1%	-2.3%	-16.0%	-12.5%	-20.7%	10.2%	·
Cc1nn(C)c2c1c(C(F)(F)F)cc(=O)n2Cc1cccc(Br)c1	·	·	-2.3%	-14.1%	·	7.8%[46.1 µM]	2.3%	·
O=C(Nc1ccccc1)OC1CN=C(N[N+](=O)[O-])NC1 (stereo unspecified)	-22.5%[46.1 µM]	·	·	·	2.0%	-0.2%	8.7%	-0.7%
COc1cc(C(=O)Oc2cccnc2)cc(OC)c1OC	·	-14.2%	·	·	-6.0%	·	-4.6%	-5.6%
FC(F)(F)c1ccc(C2[C@H]3CN(Cc4ccc(-c5ccccc5)cc4)[C@H](c4ccccc4)C34CC2(c2ccccc2)C4)cc1 (stereo partly specified)	·	8.6%	3.0%	12.6µM*	-13.3%	·	-6.1%	-1.7%
COc1cccc(C(=O)NC(=O)Nc2ccc(-c3cc(C(F)(F)F)nn3-c3ccccc3)cc2)c1	13.1%[46.1 µM]	·	-0.4%	3.4%	·	-14.1%[46.1 µM]	?	·
CCOC(=O)c1noc2ncnc(N3CCN(c4cccc(Cl)c4)CC3)c12	·	·	-8.4%	-14.4%	·	-3.3%[46.1 µM]	-5.0%	·
Cc1ccc(CNC(=O)C2CCCN(c3nn4c(=O)cc(C)nc4s3)C2)cc1 (stereo unspecified)	-4.9%[46.1 µM]	·	·	·	-9.0%	3.8%	1.9%	2.4%
CCCN1CCC(N(CCc2ccccc2)Cc2ccccc2)CC1	·	7.9%	·	·	-5.3%	·	-13.7%	0.3%
CCOc1ccc(CCNC(=O)c2nnn(CC(=O)Nc3ccc(OC)cc3)c2N)cc1OCC	·	-12.8%	·	·	7.4%	·	-11.5%	-1.3%
Cc1nn(Cc2ccccc2)c(C)c1/C=N/NC(=O)CNc1cccc(C(F)(F)F)c1	·	-1.7%	-15.0%	17.8%	9.1%	·	-25.3%	11.2µM*
COc1cc(/C=C2/C(=O)N(c3ccc(C(=O)O)cc3)N=C2C)cc(OC)c1O	19.5%[46.1 µM]	7.8%	·	·	-15.9%	-8.9%[46.1 µM]	7.6%	0.2%
O=C(NCCc1ccc(F)cc1)C(=O)NCC(c1ccco1)S(=O)(=O)c1ccccc1 (stereo unspecified)	·	·	1.6%	-1.6%	·	-3.2%[46.1 µM]	-18.5%	·
COc1cc(OC)cc(C(=O)NCC(=O)OCC(=O)C(C)(C)C)c1	8.7%	-11.9%	-6.5%	3.9%	-10.3%	0.1%	21.6%	16.2%
CCOc1ccc(-c2nc(-c3ccccc3)c(-c3ccccc3)[nH]2)cc1OCC	?	·	-7.8%	-20.7%	·	-23.8%[46.1 µM]	-24.0%	·
Cc1cc(C)cc(OCC(=O)OCC(=O)N2CCc3ccccc32)c1	3.2%	·	·	·	-10.7%	-6.4%	-2.2%	-4.5%
COc1ccc(NC(=O)CSc2nc(N)c(C(=O)Nc3ccc(N(C)C)cc3)s2)cc1	?	0.0%	2.6%	-11.3%	6.3%	-19.1%	7.8%	-3.9%
C=CCSc1nc(N)c(C#N)c(-c2ccc(C)cc2)c1C#N	-9.8%[46.1 µM]	-13.0%	-15.3%	-1.1%	-14.1%	-17.6%	-1.6%	-2.7%
CCN(CC(=O)Nc1ccc(NC(C)=O)cc1)C(=O)Cc1ccc(S(=O)(=O)N2CCOCC2)s1	-4.8%	·	·	·	0.5%	6.3%	-18.9%	0.5%
CC(c1ccccc1)n1cc2c(c1-c1ccccc1Br)c(=O)n(C)c(=O)n2C (stereo unspecified)	?	·	-4.8%	26.6%	·	-28.3%[46.1 µM]	?	·
